Screening data deposited in PubChem by several laboratories.
CSC inhib – cancer stem cell inhibition | cancer stem cell-like cells viability, luminescence | inhibition, % at 7.5 µM | 1.1% of 300,000 active | AID 2717;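 active = mean at 75% or more and at least half the replicates too; inconclusive = mean and replicates disagree; tested in HMLE shEcad cells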;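 note: 0% = median of negative and 100% = median of positive control wells; the first replicate is given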
PABP polyA inh – blocks human PABP binding to poly(A) RNA. P11940. fluorescence polarization. inhibition, % at 35 µM. 1% of 290,000 active;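 active = 50% or more with normal probe brightness, or confirmed in later tests; inconclusive = above 50% with abnormal brightness, or retests that disagree; inactive = below 50% or failed in later tests; about a fifth of its hits are not listed in these tables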;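 note: calls also rest on retests at 20 µM and on dose response follow-up; controls were probe without protein and protein plus probe with vehicle; some compounds called inactive have numbers as strong as hits; many hits fall short of the cut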
UUG fidelity – modulators of start codon recognition fidelity in yeast; activity score, % at 18.7 µM; S. cerevisiae UUG-firefly luciferase reporter, luminescence/redox ratio; AID 602363; 0.13% of 350,000 active;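 active = replicate mean at a twofold rise or more, about +100% in these data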;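 note: firefly luciferase made from a UUG start codon reports start codon fidelity; reporter light over untreated wells divided by growth signal over untreated wells; some hits fall short of that in this replicate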
MT1-MMP act inh – inhibitors of human MT1-MMP activation; GFP/RFP ratio change, % at 20 µM; 0.061% of 360,000 active; HT1080 RFP-PRO-GFP cells, GFP/RFP ratio fluorescence, overnight; percent of plate control window, DMSO zero;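 active = GFP/RFP ratio change of at least 30% with cell ATP level not reduced by more than half and red fluorescence within 50% of control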; note: strong numbers were not always called active
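Assay system: HT1080 cells carrying an RFP-PRO-GFP reporter | Dosing: Single dose of 20 µM compound, 1% DMSO final | Incubation: Cells overnight before dosing, compound overnight, 37 °C, 5% CO2 | Evaluation: GFP/RFP fluorescence ratio | Control set: DMSO and RFP-L50D-GFP cell wells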
HIV Env fusion – blocks HIV Env-driven cell-cell fusion; HeLa-JRFL Env/CEM21 cell fusion, luciferase; inhibition, % at 12.3 µM; 1.1% of 360,000 active; AID 651610;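 active = mean replicate inhibition score of at least 50 and every replicate individually at or above 50; inconclusive = only one of the two criteria met; inactive = mean below 50 and not all replicates reaching 50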;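 note: 0% = plate neutral controls and 100% = maraviroc near 300 nM; one replicate is shown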
eIF4H inh – inhibitors of RNA binding by human eIF4H; inhibition, % at 35 µM; 0.94% of 290,000 active; eIF4H fluorescence polarization binding assay; Q15056; AID 2012;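 active = 50% or more with normal probe brightness, or confirmed in later tests; inconclusive = above 50% with abnormal brightness, or retests that disagree; inactive = below 50% or failed in later tests; about a fifth of its hits are not listed in these tables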;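 note: calls also rest on retests at 20 µM and on dose response follow-up; 0% = protein and probe with vehicle and 100% = probe without protein; strong numbers were not always called active; many hits fall short of the cut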
Rce1 inh – inhibitors of yeast Ras-converting enzyme; Q03530; yeast membranes, quenched prenylated peptide cleavage fluorescence; calls only; 0.27% of 290,000 active; AID 2563;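 active = fall in fluorescence gain of 50% or more versus controls, with final raw signal at or below 3038400; inconclusive = same 50% fall but final raw signal above 3038400; inactive = fall in fluorescence gain under 50%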;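 note: plate controls were neutral control wells for no effect and wells lacking membranes for full effect; tested at 10 µM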
Target sequence (Q03530 whole entry, looked up): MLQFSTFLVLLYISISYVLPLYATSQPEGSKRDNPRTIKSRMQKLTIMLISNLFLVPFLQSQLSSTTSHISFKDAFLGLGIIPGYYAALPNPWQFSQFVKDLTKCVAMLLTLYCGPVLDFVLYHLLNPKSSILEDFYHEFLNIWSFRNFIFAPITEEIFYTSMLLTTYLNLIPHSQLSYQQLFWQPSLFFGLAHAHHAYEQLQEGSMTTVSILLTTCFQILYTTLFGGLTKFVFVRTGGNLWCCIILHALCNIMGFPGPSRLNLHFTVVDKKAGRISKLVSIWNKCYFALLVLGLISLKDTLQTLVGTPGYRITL
eIF4H inh retest – second read-out of eIF4H inh, no call of its own (marks repeat the call); inhibition, %; compound at 20 µM; confirmation average;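 mean of two retest wells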
PABP polyA inh retest – recorded beside PABP polyA inh, whose call it bears; inhibition, %; compound at 20 µM; confirmation repeats;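 mean of two retest wells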
MT1-MMP act inh RFP – also measured in MT1-MMP act inh; calls as there; RFP signal change, %; measured here: RFP expression control read;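 0 = vehicle wells; hits needed this value within 50% of zero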
Numbers without * were called inactive; i = inactive; ? = inconclusive; . = not tested or not shown; & = joins results of further samples; [ ] = dose if it differs, or a comment. Only part of the results is shown; the hit share may differ from the screen's.

SMILES	CSC inhib	PABP polyA inh	UUG fidelity	MT1-MMP act inh	MT1-MMP act inh RFP	HIV Env fusion	eIF4H inh	Rce1 inh	others
C=CC[C@H](CC(=O)NCCO)C(=O)N[C@H](C)COC(=O)[C@@H](CC=C)Cc1ccc(F)cc1	-5.2	.	-1.1	-0.6	-1.6	22.7	.	.
CC(C)CN(C(=O)CN(C)C(=O)c1ccco1)c1c(N)n(CC(C)C)c(=O)[nH]c1=O	-7.2	.	.	3.9	1.9	-1.9	.	i
COC(=O)c1ccccc1NC(=O)C1(S(=O)(=O)c2ccc(Cl)cc2)CC1	.	10.8	6.6	-1.3	-2.6	16.1	6.5	i
CCn1cc(C(=O)N[C@@H](CCSC)C(=O)NCCOC)c(=O)c2cc3c(cc21)OCO3	-8.0	8.0	-10.6	-3.7	0.9	-14.3	0.1	i
O=C(Cc1c(F)cccc1Cl)NNC(=O)c1ccccc1Cl	-15.5	.	-6.9	-3.7	1.3	.	.	.
N#C/C(=C\c1ccc(O)c([N+](=O)[O-])c1)c1nc2ccccc2s1	.	?	15.9	2.4	-13.5	4.1	22.9	i
O=[N+]([O-])c1ccccc1/C=C/CN1CCCCC1CO (stereo not drawn)	-12.5	-1.9	-11.7	-1.9	0.4	5.3	-4.5	i
COc1ccc(C(=O)Nc2c(-c3ccccc3)nc3ccccn23)c(OC)c1	11.4	-7.4	-7.5	-10.0	-6.1	23.5	-0.3	i
COc1ccccc1C(=O)NNC(=O)C12CC3CC(CC(C3)C1)C2	-3.6	3.8	-0.1	-1.4	1.7	-1.5	-8.7	i
CC(C)C(NS(=O)(=O)c1cccs1)C(=O)N1CCC(C(N)=O)CC1 (stereo not drawn)	-15.7	.	.	-7.9	-1.0	-3.8	.	.
CC(Sc1ccccc1)C(=O)Nc1ccc(S(=O)(=O)N2CCOCC2)cc1 (stereo not drawn)	-5.7	-2.2	-17.3	-3.5	-4.9	-64.0	-1.4	i
CC(C)[C@H](NC(=O)Nc1ccccc1F)C(=O)O	.	-0.5	.	5.9	3.8	.	3.4	i
CC(=O)N1CC(C)Sc2ccc(S(=O)(=O)NCCc3ccccc3)cc21 (stereo not drawn)	-9.3	-7.4	0.5	1.2	-19.0	-3.2	-9.8	i
CCCN(CCC)CCNS(=O)(=O)c1ccc2c(c1)CCN2C(=O)C1CCC1	30.7	-9.2	.	5.1	5.2	.	-3.0	i
COc1cc(C(=O)Nc2ccc3nc4n(c(=O)c3c2)CCCC4)ccc1Br	2.2	-1.8	-6.1	3.7	0.9	1.9	-10.1	i
CSc1nc2nc3c(cc2c(=O)n1-c1ccccc1C)COC(C)(C)C3	-12.0	-1.9	-30.4	2.5	-5.8	14.4	6.3	i
O=C(OCCN1CCCCC1)c1ccccc1F	-13.9	-2.2	-4.6	0.8	1.4	7.5	-7.5	i
O=C(C1CCCN(S(=O)(=O)c2ccc(Cl)cc2)C1)N1CCCC1 (stereo not drawn)	-11.8	2.0	-9.6	-4.1	-1.0	-2.6	-14.0	i
O=C(CSc1ccc(-c2ccco2)nn1)N1CCCC1	-15.7	-16.9	-10.5	-2.2	2.6	-16.2	22.0	i
COc1cccc(NC(=O)CN(C)C(=O)c2oc3c(ccc4ccccc43)c2C)c1	-5.6	.	-6.6	10.7	2.2	6.3	.	i
O=S(=O)([N-]c1nc2ccccc2nc1-[n+]1ccccc1)c1ccccc1	6.5	-4.9	.	6.3	8.5	.	6.0	i
COc1ccccc1N1CCN(C(c2ccc(Cl)cc2)c2nnnn2C(C)(C)C)CC1 (stereo not drawn)	12.4	-5.8	9.0	1.0	-10.7	.	1.1	i
Oc1ccc(C=NCC2COc3ccccc3O2)cc1 (stereo not drawn)	-1.6	4.0	.	13.3	0.3	-79.5	-7.1	i
COc1cccc(C(=O)NCCOc2cc(C)cc(C)c2)c1	-29.8	3.8	-12.2	3.7	2.2	15.1	10.1	i
CC(=S)c1c(C)cc2cc(C)ccn12	9.1	21.4	.	-4.6	-0.9	-26.0	21.2	i
CC(=O)C1=C(O)C(=O)N(c2nccs2)C1c1ccccc1F (stereo not drawn)	-9.8	22.1	.	10.4	7.7	-0.2	5.6	i
COc1ccc2nc(C)cc(NCCN3CCOCC3)c2c1	0.7	-0.1	-17.6	-1.4	1.0	-12.7	101.8	i	eIF4H inh retest=0.3;PABP polyA inh retest=8.5
CCNC(=S)NCc1ccc(Cl)cc1	-5.6	.	-26.8	-0.7	1.1	-9.2	.	i
Cc1ccc(C(=O)NCc2ccco2)o1	-15.6	25.8	3.3	3.1	3.7	-6.7	33.9	i
CCN(CC)S(=O)(=O)c1ccc(C(=O)Nn2cnnc2)cc1	-7.7	-1.6	-18.2	3.6	5.1	6.4	-8.2	i
Cc1ccc(N(CC(=O)NCc2ccccc2Cl)S(=O)(=O)c2cccs2)cc1	-5.3	-9.7	.	-8.7	-7.6	.	-7.1	i
COc1ccc(C)cc1NC(=O)c1ccc(NS(=O)(=O)c2cccc3cccnc23)cc1	.	-6.0	-12.5	2.5	-4.6	-15.9	0.4	i
COc1cc(C2C3C(=O)N(Cc4ccccc4)C(=O)C3ON2c2ccccc2)cc(OC)c1OC (stereo not drawn)	.	-0.6	23.6	-3.2	-0.5	.	3.0	i
Cc1cc(C)n(C2CCCCC2OC(=O)c2ccccc2F)n1 (stereo not drawn)	.	-4.8	2.0	-3.6	-1.1	11.1	-14.7	i
CC(C)c1ccc(C(=O)NC(=S)Nc2ccc3[nH]c(=O)[nH]c3c2)cc1	-4.4	2.6	.	-3.0	-4.8	-20.8	4.8	.
Cn1c2ccccc2c(=O)c2c(=O)n(C3CCCCC3)c(-c3ccco3)nc21	9.7	-7.9	.	-39.7	-25.9	.	7.8	i
COc1ccccc1NC(=O)Cn1cc(C(=O)C2CC2)c2ccccc21	-10.6	-4.5	-0.5	-1.0	-2.8	-0.4	5.8	i
Cn1cccc1Cc1nnc(SCC(=O)Nc2cccc(Cl)c2)n1-c1ccc(F)cc1	6.0	-28.8	-23.0	3.2	-4.4	0.0	3.9	i
Cc1cc(C)c(NC(=O)C(C)c2cccc(C(=O)c3ccccc3)c2)c(C)c1 (stereo not drawn)	-16.1	-8.1	.	-1.5	-7.3	.	-3.5	i
N#Cc1cc2cc3c(cc2nc1SCC(=O)N1CCOCC1)OCO3	-2.6	6.2	-5.8	-1.8	-4.4	-33.2	-2.0	i
O=C(O)c1cc2c([nH]c1=O)CCCC2	-9.9	5.9	-5.8	-1.7	0.8	33.3	7.9	i
Cc1ccc(S(=O)(=O)NC(=O)c2ccc(-c3ccc(-c4ccccc4)cc3)o2)c(C)c1	81.7*	3.0	.	.	.	.	3.2	i
COc1ccccc1C(=O)NC1CCCc2ccccc21 (stereo not drawn)	-8.9	10.0	.	0.3	2.9	-10.9	-0.5	i
CCN(CC)S(=O)(=O)c1cccc(C(=O)N[C@H](C(=O)O)C(C)C)c1	-0.5	0.0	-44.7	3.3	-2.5	.	5.6	i
Oc1cccc(C2c3[nH]c4ccccc4c3CCN2Cc2cnn(-c3ccccc3)c2)c1 (stereo not drawn)	5.3	4.1	.	-1.1	-1.6	11.2	-2.8	i
O=c1ncn(-c2cccc(F)c2)c2ncccc12	-1.3	3.9	13.9	-1.5	2.3	-101.5	-4.2	i
Cc1ccccc1OCC(=O)N1N=C(C(F)(F)F)CC1(O)C(C)(C)C (stereo not drawn)	.	6.0	11.4	6.3	-3.8	13.5	-1.9	.
COc1cccc(CNC(=O)CCl)c1	11.3	-1.8	-5.8	0.6	4.3	-3.8	-11.9	i
Cc1ccc(S(=O)(=O)NNc2ccccc2)cc1	8.0	-2.6	.	5.4	1.8	.	1.3	i
CC(C)NC(=O)Nc1cccc2c1O[C@@H](CN(C)S(=O)(=O)c1ccc(F)cc1)[C@@H](C)CN([C@H](C)CO)C2=O	.	.	3.2&-15.5	2.8	-2.1	-18.7[16.7 µM]	.	.
COc1ccc([C@H]2N[C@]3(CCCN(Cc4ccccc4)C3=O)[C@H]3C(=O)N(Cc4ccccc4)C(=O)[C@@H]23)cc1	.	.	1.8	-0.5	-0.6	-207.0	.	.
CCc1nc2ccc(C(=O)N3CCCC(C(N)=O)C3)cn2c1N(C=O)CC (stereo not drawn)	.	.	-18.9	2.0	7.2	-3.6	.	.
COc1ccc(-c2csc(C(C)(NC(C)=O)c3ccccc3)n2)cn1 (stereo not drawn)	.	.	-3.4	2.4	1.9	33.2	.	.
COC(=O)c1c(NC(=O)c2ccco2)sc(C)c1C	7.4	-3.0	-18.7	-3.5	-0.2	-12.0	-5.6	i
Cn1c(=O)c(=O)n(C)c2cc(S(=O)(=O)CCC(=O)N3CCCCC3)ccc21	-10.3	-6.6	-6.3	-0.4	2.0	.	-10.8	i
O=c1c2ccccc2sn1-c1ccc(F)cc1	21.9	.	-26.0	-5.0	-4.6	-28.0	.	.
O=C1Nc2ccccc2Oc2cc([N+](=O)[O-])ccc21	13.6	-3.1	-13.4	-19.9	3.9	25.7	20.9	i
CCOC(=O)CSc1ncc(OC)c(Sc2ccc(Cl)cc2)n1	3.1	-5.9	-22.8	-3.5	-6.1	-17.1	-3.3	i
Cc1ccc(S(=O)(=O)N2CCCC(C(=O)O)C2)s1 (stereo not drawn)	-13.0	-4.1	-6.9	-2.0	0.9	5.6	0.2	i
CN(C)c1ccc(-c2ccc3oc(-c4ccsc4)cc(=O)c3c2)cn1	19.7	.	-1.3	2.7	1.1	-137.8	.	.

Quoted at random: two records from the list.
SMILES	CSC inhib	PABP polyA inh	UUG fidelity	MT1-MMP act inh	MT1-MMP act inh RFP	HIV Env fusion	eIF4H inh	Rce1 inh	others
COc1ccc(-c2csc(C(C)(NC(C)=O)c3ccccc3)n2)cn1 (stereo not drawn)	.	.	-3.4	2.4	1.9	33.2	.	.
COc1cccc(CNC(=O)CCl)c1	11.3	-1.8	-5.8	0.6	4.3	-3.8	-11.9	i

Next section.
SMILES	CSC inhib	PABP polyA inh	UUG fidelity	MT1-MMP act inh	MT1-MMP act inh RFP	HIV Env fusion	eIF4H inh	Rce1 inh	others
CCN1CCc2c(OCC(=O)N3CCCCC3)cccc2C1=O	10.0	-8.6	.	1.9	2.3	1.0	1.5	i
CCCCn1c(N)c(N(CC)C(=O)c2c(CC)noc2C)c(=O)[nH]c1=O	-5.0	.	-22.9	-5.0	2.3	.	.	i
Cc1ccsc1C(=O)Nc1ccc(OCc2ccccc2)cc1	-10.8	-3.7	-6.9	5.5	-2.0	-15.9	-1.8	i
C=CCn1c(=O)c2c(nc3n2CCCN3CCc2ccccc2)n(C)c1=O	12.3	-5.1	-18.0	-0.5	-0.9	-3.1	-7.9	i
Cc1nnc(-c2cccc(Br)c2)c2cn(-c3ccccc3Cl)nc12	-2.5	-5.4	-3.5	-6.4	-5.6	19.5	-4.3	i
CC(O)CCc1nc2ccc(C(=O)O)cc2[nH]1 (stereo not drawn)	-7.5	-2.5	-25.1	2.2	3.6	.	-7.1	i
Cc1cccc2cc(CN(Cc3cccs3)C(c3nnnn3C3CCCC3)C(C)C)c(=O)[nH]c12 (stereo not drawn)	.	2.5	-10.1	0.1	-2.3	.	-6.7	.
Cc1nnc(C)n1/N=C/c1cccnc1	-13.1	0.3	-8.4	-1.0	-0.1	-21.1	1.8	i
COCCNC(=O)CN1N=C(c2ccc(OC)cc2)CCC1=O	-16.7	5.2	-28.3	2.3	3.1	-10.6	-2.7	i
COC(=O)c1c(C)oc(C)c1S(=O)(=O)N1CCCCC1	5.2	0.8	-1.4	5.1	3.6	-16.6	-4.5	i
